KCNQ2 enhance = KCNQ2 (rat) channel potentiation | O88943 | CHO-K1 KCNQ2, FluxOR thallium flux fluorescence; active compounds read high | B-score at 10 µM | 310,000 compounds, 0.54% hits | AID 2239;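 active = fluorescence ratio B-score at least 3 SD of library B-scores, with initial fluorescence B-score within 3 SD, cut at about 5.3 in these data; same plate scores as AID 2156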;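 also: B-score of peak minus minimum over baseline fluorescence ratio after K+ and Tl+ stimulus; positive B-score means potentiation of KCNQ2 with more thallium influx and brighter signal; only the inactives scoring about 0 or higher are listed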
Target sequence (O88943 whole entry, looked up): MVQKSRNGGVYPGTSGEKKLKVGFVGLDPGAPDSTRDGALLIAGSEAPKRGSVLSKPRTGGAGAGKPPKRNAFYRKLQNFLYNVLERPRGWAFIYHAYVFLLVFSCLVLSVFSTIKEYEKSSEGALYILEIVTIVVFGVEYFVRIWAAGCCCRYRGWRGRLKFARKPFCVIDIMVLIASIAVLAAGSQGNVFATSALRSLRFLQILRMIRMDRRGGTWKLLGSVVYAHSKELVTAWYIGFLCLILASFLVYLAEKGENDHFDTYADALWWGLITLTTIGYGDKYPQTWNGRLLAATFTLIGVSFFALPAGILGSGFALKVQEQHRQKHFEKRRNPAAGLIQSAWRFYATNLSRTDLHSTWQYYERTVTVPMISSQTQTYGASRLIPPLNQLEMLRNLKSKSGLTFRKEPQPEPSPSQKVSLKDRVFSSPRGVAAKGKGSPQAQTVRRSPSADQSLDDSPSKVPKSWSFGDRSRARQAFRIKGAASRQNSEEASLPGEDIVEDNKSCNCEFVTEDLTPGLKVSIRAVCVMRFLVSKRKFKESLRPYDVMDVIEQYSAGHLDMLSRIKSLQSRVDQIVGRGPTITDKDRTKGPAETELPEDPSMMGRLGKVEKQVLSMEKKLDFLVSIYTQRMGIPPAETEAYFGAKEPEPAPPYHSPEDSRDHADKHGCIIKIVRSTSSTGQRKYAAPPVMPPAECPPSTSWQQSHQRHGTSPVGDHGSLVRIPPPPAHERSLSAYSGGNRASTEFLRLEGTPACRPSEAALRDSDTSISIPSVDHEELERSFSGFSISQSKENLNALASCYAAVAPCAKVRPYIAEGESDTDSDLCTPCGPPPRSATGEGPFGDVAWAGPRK
KCNQ2 enhance baseline = recorded beside KCNQ2 enhance, whose call it bears; B-score; compound at 10 µM; measured here: initial fluorescence intensity artifact check;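 brightness before thallium and not channel activity; 0 = typical well and far values either way flag optical interference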
* hit, by the source's call. This is a subset (hit frequency here may not be typical).

KCNQ2 enhance	KCNQ2 enhance baseline	mol
0.05	0.17	O=C(Nc1ccc([N+](=O)[O-])cc1)C1CC12CCC2 (centres undefined)
0.49	1.5	CCCC(=O)Nc1ccc(Sc2ccc([N+](=O)[O-])cc2)cc1
0.03	-0.43	CC(=O)NC(CC(C)C)C(=O)NC(=O)NCc1ccccc1 (centres undefined)
0.63	-1.4	CCOc1ccccc1C(=O)OCC(=O)Nc1ccc(OC(F)F)cc1
2.2	-1.4	CCNc1nc(NC(C)C)nc(NC(C)(C)C)n1
0.23	1.1	COc1cccc(C(=O)COc2ccc(NC(=O)c3cccs3)cc2)c1
1.5	0.46	CC(=O)Nc1ccc(S(=O)(=O)Nc2ccc3c(c2)n(C)c(=O)n3C)c(C)c1
0.15	0.95	Cc1ccc(NC(=O)Cn2nc(C)c(S(=O)(=O)N(C)C)c2C)cc1C
0.97	-0.91	COc1ccccc1NS(=O)(=O)c1ccc2c(c1)N(C(C)=O)CC(C)S2 (centres undefined)
0.7	-1.7	CCN1C(=O)/C(=C/c2nc3ccccc3c(=O)n2-c2ccc(C)cc2)c2ccccc21
1.3	0.17	Cc1cc(NC(=O)c2ccco2)ccc1-n1cnnn1
0.58	-0.06	COc1ccc(CNC(=O)c2ccc(Cn3cc(Br)cn3)o2)cc1
2.6	-1.2	Cn1c(CSc2nc3ccccc3s2)n[nH]c1=S
2.1	-0.47	CCCn1c(SCC(=O)Nc2cc(S(=O)(=O)N3CCOCC3)ccc2Cl)n[nH]c1=O
0.12	1.6	Cc1nn2c(-c3ccco3)nnc2c2ccccc12
1.2	0.02	C[C@H]([C@H](O)c1ccccc1)N(C)C(=O)CN
2.1	-1.1	COc1ccc(CNCc2cccc(Oc3ccccc3)c2)cc1
0.58	0.11	Cc1cc(N)nc(SCC(=O)N2C(C)CCCC2C)n1 (centres undefined)
0.91	-0.39	CC1CCC2(CC1)N=C(N)Nc1nc3ccccc3n12 (centres undefined)
2.1	-0.18	CCc1ccc(C(=O)NNC(=O)OC)cc1
0.12	-0.33	Cc1cc(NS(=O)(=O)c2ccc(NC(=O)CCCOc3ccccc3C)cc2)no1
0.99	-1.6	CCN(CC)C(=N)N1c2ccccc2CCC1C (centres undefined)
0.09	-2.4	Cc1cc(C)c2c(N)c(C(=O)Nc3cccc(C)c3C)sc2n1
4.9	-1.4	Cc1ccc(Nc2nc(N/N=C/c3c[nH]c4ccccc34)nc(N3CCOCC3)n2)cc1
0.89	-0.18	C=C(C)C(=O)Nc1cccc(C2=NOC3(C2)C[C@@H](C(N)=O)N(C(=O)c2cc([N+](=O)[O-])cc([N+](=O)[O-])c2C)C3)c1 (some centres undefined)
1.3	-0.33	CCN(CC)c1ccc(C(=O)OCC(=O)NC(C)(C)C)cc1
0.32	-0.13	CCOC(=O)c1ccccc1NC(=O)N[C@@H](C)C(=O)OC
1.8	-0.88	CCCCSc1nnc2[nH]c(=O)cc(N)n12
1.5	1.7	N#Cc1cn(Cc2ccncc2)c(=O)[nH]c1=O
2.6	0.39	CC(C)c1ccc(S(=O)(=O)N2CCN(C(=O)CCNS(=O)(=O)c3ccccc3F)CC2)cc1
0.95	0.59	CC1CCCCC1NS(=O)(=O)c1ccc(S(=O)(=O)N2CCCC2)cc1 (centres undefined)
1.4	1.3	CCSc1nnc(NC(=O)c2c(C)noc2C)s1

Ordered by the number under KCNQ2 enhance baseline (falling): five from the list above.
KCNQ2 enhance	KCNQ2 enhance baseline	mol
1.5	1.7	N#Cc1cn(Cc2ccncc2)c(=O)[nH]c1=O
0.49	1.5	CCCC(=O)Nc1ccc(Sc2ccc([N+](=O)[O-])cc2)cc1
0.95	0.59	CC1CCCCC1NS(=O)(=O)c1ccc(S(=O)(=O)N2CCCC2)cc1 (centres undefined)
0.32	-0.13	CCOC(=O)c1ccccc1NC(=O)N[C@@H](C)C(=O)OC
0.03	-0.43	CC(=O)NC(CC(C)C)C(=O)NC(=O)NCc1ccccc1 (centres undefined)

A different layout for some results above:
mol	KCNQ2 enhance	KCNQ2 enhance baseline
CCCCSc1nnc2[nH]c(=O)cc(N)n12	1.8	-0.88
N#Cc1cn(Cc2ccncc2)c(=O)[nH]c1=O	1.5	1.7
CC(C)c1ccc(S(=O)(=O)N2CCN(C(=O)CCNS(=O)(=O)c3ccccc3F)CC2)cc1	2.6	0.39

The list goes on.
KCNQ2 enhance	KCNQ2 enhance baseline	mol
0.21	-0.74	Cc1cc(OCC(O)CN)ccc1Cl (centres undefined)
0.31	0	COc1ccc(NC(=O)NCc2ccc3c(c2)OCO3)cc1
3.2	0.49	CC(C)n1c(=S)[nH]c2cc(C(F)(F)F)ccc21
0.18	0.33	O=C(Nc1ccc2c(c1)C(=O)NC2=O)c1ccc(S(=O)(=O)N2CCCC2)cc1
0.39	0.77	COc1ccc(N2CC(C(=O)Nc3ncccc3C)CC2=O)cc1 (centres undefined)
0.02	-0.47	COC(=O)CSc1nnc(C)n1-c1cccc(C#N)c1
0.11	1.3	COc1cccc(NC(=O)C2C3C=CC4(O3)C2C(=O)N(CCN2CCCCC2)C4C(=O)NC2CCCCC2C)c1 (centres undefined)
0.33	2.6	CSc1nc(C)cc(OCC#N)n1
0.22	0.65	Cc1nc2c(F)c(F)c(C(F)(F)F)c(F)c2[nH]1
0.65	-1.2	Cc1ccc(/C=N/NC(=O)c2ccc3nc[nH]c3c2)s1
0.48	0.03	O=C(COc1ccc(Cl)cc1Cl)OCC(=O)N1CCCc2ccccc21
0.85	-0.04	CCOC(=O)N1CCN(C(=O)c2c[nH]c3ccc(S(=O)(=O)N(C)c4ccccc4C)cc3c2=O)CC1
0.24	-0.27	CC(O)c1nc2ccccc2n1CCCc1ccccc1 (centres undefined)
0.04	0.92	Cc1cnc(NC(=O)CSc2nnc(COc3ccccc3)o2)s1
0.68	-0.37	CCOC(=O)Nc1nnc(/C=C/c2ccc(OC)cc2)s1
6*	-0.42*	Cc1ccc(S(=O)(=O)Nc2cccc3ncccc23)s1
0.9	-0.54	O=C1NCC(=O)N2CCC[C@@H]12
0.04	1.7	CC(C)CC(N)C(=O)OCc1ccc([N+](=O)[O-])cc1 (centres undefined)
0.51	2.1	CC(C(=O)O)N1C(=O)c2ccccc2C1=O (centres undefined)
1.4	0.9	O=C(Nc1cccc(Cl)c1Cl)c1ccccc1NC(=O)C1CC=CCC1C(=O)O (centres undefined)
0.77	0.02	COCc1c(C(=O)Nc2nc(C)cs2)oc2ccccc12
0.04	0.05	COCCCn1c(C23CC4CC(CC(C4)C2)C3)n[nH]c1=S
2	-2.2	O=C(N/N=C/c1cn(-c2cccs2)nc1-c1ccccc1)c1ccc(O)cc1
0.16	1.9	CCCc1nc2ccccc2n1CC(O)COc1ccc(NC(C)=O)cc1 (centres undefined)
0.4	-2	Cc1cc(N)n(-c2nc(-c3cccnc3)nc3ccccc23)n1
1.3	1.4	NNC(=O)c1ccc(CSc2nc3ccccc3[nH]2)cc1
0.75	-0.66	CNC(=S)Nc1ccc(C(N)=O)cc1
1.3	0.04	O=C1C2C3C=CC(C3)C2C(=O)N1c1ccc2c(c1)CCC2 (centres undefined)
0.04	2.3	Cc1ccc(CCNC(=O)CCS(=O)(=O)Cc2ccc(C)cc2)cc1
2.2	-1.7	O=C(COC(=O)c1n[nH]c2ccccc12)NC(=O)NC12CC3CC(CC(C3)C1)C2
0.8	0	COc1ccc(C(=O)NCCOc2ccccc2Cl)c(OC)c1OC
0.46	-1.2	Cc1ccnc(NC(=O)CNC(=O)c2ccc(Br)o2)c1
0.07	0.31	O=C(NN=C1CCCC1)NC1CCCCC1
0.55	1.6	CCOC(=O)C(N)CSC1CC(=O)N(c2ccc(OCC)cc2)C1=O (centres undefined)
0.21	0.55	O=c1c(C=NCC2CCCO2)c(-c2ccccc2)[nH]n1-c1ccc([N+](=O)[O-])cc1 (centres undefined)
0.73	0.04	Cc1ccccc1N1CC(C(=O)Nc2nnc(SCCC3OCCO3)s2)CC1=O (centres undefined)
0.04	2	CCOC(=O)c1c(NC(=O)COC(=O)Cc2ccccc2[N+](=O)[O-])sc(C(=O)N(C)C)c1C
0.94	0.83	COc1ccc(CNC(=O)C(=O)NCC2OCCN2S(=O)(=O)c2ccccc2)cc1 (centres undefined)
0.82	-0.54	CC(OC(=O)CCC1CCCCC1)C(=O)Nc1ccc(S(N)(=O)=O)cc1 (centres undefined)
0.05	-1.1	S=C(NC1CCCCC1)N1CCN(Cc2ccccc2Cl)CC1
0.27	-0.03	O=C(C(Cc1ccccc1)N1C(=O)c2ccccc2C1=O)N1CCc2ccccc21 (centres undefined)
0.31	0.34	CNC(=O)CSc1nc2cc(S(=O)(=O)Nc3ccc(OC)cc3)ccc2o1
0.62	-1.2	CSC1=NCCN1C(=O)c1ccc(S(=O)(=O)N2CCOCC2)cc1
0.15	1.6	CCN(CC(=O)Nc1ccccc1OC)C(=O)CSCC(=O)Nc1ccc(OC)cc1
1	0.02	CCc1nnc(NC(=O)CSc2nnc(C)n2Cc2ccccc2)s1
0.05	0.48	CCOc1ccc(NS(=O)(=O)c2ccc(NS(=O)(=O)c3cccs3)cc2)cc1
0.67	0.06	Fc1ccc(/C=N/n2cnn(Cc3ccccc3Cl)c2=S)cc1
0.15	0.41	Cc1ccc(Oc2ccc3c(c2)C(=O)N(c2cccc4cccnc24)C3=O)cc1

Some of these compounds in order of number of heavy atoms, highest first.
KCNQ2 enhance	KCNQ2 enhance baseline	mol
0.27	-0.03	O=C(C(Cc1ccccc1)N1C(=O)c2ccccc2C1=O)N1CCc2ccccc21 (centres undefined)
0.05	0.48	CCOc1ccc(NS(=O)(=O)c2ccc(NS(=O)(=O)c3cccs3)cc2)cc1
0.31	0.34	CNC(=O)CSc1nc2cc(S(=O)(=O)Nc3ccc(OC)cc3)ccc2o1
1	0.02	CCc1nnc(NC(=O)CSc2nnc(C)n2Cc2ccccc2)s1

Next entries:
KCNQ2 enhance	KCNQ2 enhance baseline	mol
1.3	0.4	COc1ccc(S(=O)(=O)N2CCOCC2)c(C)c1C
0.87	-0.97	CSc1ccc(C(=O)C2CCCN(C(=O)CCc3cnn(C)c3)C2)cc1 (centres undefined)
0.32	0	CN(Cc1ccccc1)C(=O)COC(=O)C1CCN(S(=O)(=O)c2ccc(Cl)c(C(F)(F)F)c2)CC1
0.09	-0.89	COc1ccc(C2/C=C\CN(S(=O)(=O)c3cccc4cccnc34)CC(=O)N2Cc2ccc(F)cc2)cc1 (centres undefined)
1.3	0.01	CCOc1ccc(-c2nnc3ccc(SCC(=O)Nc4nc5ccccc5s4)nn23)cc1
1.3	-0.34	CCc1ccc(C2C(C#N)=C(N)OC3=C2C(=O)CCC3)s1 (centres undefined)
1.5	0.12	Cc1c(N=Cc2c(O)n(C3CCCCC3)c(=O)[nH]c2=O)c(=O)n(-c2ccccc2)n1C
1.7	-0.39	COC(=O)COc1cccc2c(=O)n(CC(=O)Nc3ccc4c(c3)OCCO4)ccc12
0.77	-0.01	Cc1ccnc(NC(=O)Cc2ccc(F)cc2)n1
0.02	-0.34	O=C(Cc1cccs1)Nc1ccc(C(=O)O)cc1
0.26	-0.15	CCc1nc2ccccc2n1CCC(=O)O
1.5	0.01	COc1ccc(N2CCCCn3c2nc2c3c(=O)[nH]c(=O)n2C)cc1
0.5	2.2	CCCCC(=O)Nc1ncc(Br)s1
1.1	0.26	CCOc1ccc(C(=O)CCC(=O)NC(CC(C)C)C(=O)OC)cc1 (centres undefined)
2.1	-0.37	CCC(CC)C(=O)Nc1ccc(-c2cn3cccnc3n2)cc1
1.6	1.1	O=C(CCc1nc2ccccc2n1-c1ccccc1)NCCO
0.69	0.76	O=C(Nc1ccc2c(c1)OCO2)Nc1cnccn1
0.07	-0.21	[O-]/[N+](=C/c1ccc(F)cc1)c1ccccc1
0.18	0.3	COCC(=O)N1CCC(Oc2ccc(C(=O)NC3Cc4ccccc4C3)cc2)CC1
0.28	-0.81	CCOC(=O)C1CCCN(C(=O)CN2C(=O)/C(=C/c3ccc(OC)cc3)Oc3ccccc32)C1 (centres undefined)
0.77	-2.8	c1ccc(-c2noc(CN3CCOCC3)n2)cc1
0.63	-0.13	CCOc1ccc(NS(=O)(=O)c2ccc(C)c(C(N)=O)c2)cc1
1.5	0.81	O=C(O)CNC(=O)c1ccccc1F
0.34	0.25	CCC(CC)c1nnc(NC(=O)Cc2cccs2)s1
0.08	1.6	CCC(C)C(=O)Nc1nc2ccc(S(C)(=O)=O)cc2s1 (centres undefined)
0.73	-1.8	CCC(C)NC(=O)c1ccc(CSCc2ccccc2Cl)o1 (centres undefined)
2.2	-0.61	CCOC(=O)c1c(NC(=O)CN2C(=O)NC3(CCC(C)CC3)C2=O)sc(C)c1CC (centres undefined)
0.55	-1.2	CS(=O)(=O)NCCNc1ncc(C(F)(F)F)cc1Cl
1.6	0.02	Cc1[nH]nc2c1C(c1ccc(F)cc1)C(C#N)=C(N)O2 (centres undefined)
0.13	-0.42	Nc1c(C(O)(C(F)(F)F)C(F)(F)F)ccc2ccccc12
